From PubChem BioAssay
Insulin prom inh: TRM-6 insulin promoter activity inhibition | TRM-6 cells (human fetal islet line), insulin promoter-eGFP reporter, imaging; reporter expression induced with tamoxifen | inhibition, % at 2 µM | actives 0.9% (n = 130,000) | AID 1273;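 active means inhibition above the mean plus 3 SD, with well images judged a real hit on visual review, cut at about 60% in these data, passing the limit was not always enough; inconclusive means inhibition over the cutoff but images rejected on review; inactive means inhibition not above the cutoff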
RGS16-Gao HTS: regulators of human RGS16-Galphao interaction; O15492+P09471; bead-based flow cytometry RGS16-Galphao binding, fluorescence; actives lie on both sides; binding response (% of control), % at 10 µM; actives 0.38% (n = 220,000);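 active means below 25% or above 175%, edge rows of some plates excepted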;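 further: Galphao activated by GDP with aluminum fluoride before binding; 100% = wells without compound and 0% = beads without RGS; some results beyond the cut were filed as inactive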
Target sequence (O15492 whole entry, looked up): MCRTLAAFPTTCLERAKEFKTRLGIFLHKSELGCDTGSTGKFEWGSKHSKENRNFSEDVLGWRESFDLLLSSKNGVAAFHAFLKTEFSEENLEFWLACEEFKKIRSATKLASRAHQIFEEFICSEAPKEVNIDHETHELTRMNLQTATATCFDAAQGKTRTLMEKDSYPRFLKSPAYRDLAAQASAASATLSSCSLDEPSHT
Target sequence (P09471 whole entry, looked up): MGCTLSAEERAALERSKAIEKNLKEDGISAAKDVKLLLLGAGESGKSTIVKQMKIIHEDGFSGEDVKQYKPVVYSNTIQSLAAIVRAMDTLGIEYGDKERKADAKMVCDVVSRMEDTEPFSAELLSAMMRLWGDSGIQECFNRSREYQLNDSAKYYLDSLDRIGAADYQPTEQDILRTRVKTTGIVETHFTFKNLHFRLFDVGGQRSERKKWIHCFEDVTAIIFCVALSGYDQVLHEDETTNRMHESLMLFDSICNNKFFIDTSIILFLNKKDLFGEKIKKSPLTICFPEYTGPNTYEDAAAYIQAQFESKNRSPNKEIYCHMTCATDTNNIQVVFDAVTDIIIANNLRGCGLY
PKD1 inh: PKD1 (human) kinase inhibition; Q15139; PKD1 kinase fluorescence polarization assay; inhibition, %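 (about 10 µM by stock and volumes)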; actives 0.056% (n = 200,000); AID 797;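 active means inhibition of 50% or more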;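 further: controls were vehicle for no effect and a reference inhibitor for full effect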
GALR2 agonist: activates the human galanin receptor 2 | activation, %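 (tested at 5 µM)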 | GALR2-expressing cells, agonist activation read-out | actives 0.48% (n = 140,000);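 active means above mean plus 3 SD of all compounds, about 5% in these data, not always enough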;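 further: 0% = vehicle buffer wells and 100% = reference agonist at full effect; tested in CHO reporter cells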
Target sequence (O43603 whole entry, looked up): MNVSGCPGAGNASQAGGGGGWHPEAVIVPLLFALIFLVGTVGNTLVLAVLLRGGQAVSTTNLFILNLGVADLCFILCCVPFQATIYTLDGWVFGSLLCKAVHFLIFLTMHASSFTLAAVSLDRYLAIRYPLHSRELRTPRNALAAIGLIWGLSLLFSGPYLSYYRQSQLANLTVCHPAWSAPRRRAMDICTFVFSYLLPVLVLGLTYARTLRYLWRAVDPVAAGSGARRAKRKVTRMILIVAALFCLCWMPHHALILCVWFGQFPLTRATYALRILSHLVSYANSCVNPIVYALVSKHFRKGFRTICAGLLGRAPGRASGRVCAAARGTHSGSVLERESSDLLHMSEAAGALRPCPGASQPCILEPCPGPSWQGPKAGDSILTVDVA
HSV augment: HSV replication enhancement. HSV replication augmentation in cells, fold increase. maximum fold increase. actives 0.005% (n = 220,000). AID 1956;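 active means peak rise of 1.5-fold or more in the series; inconclusive means self-fluorescent or not available for retest; tested in PC3 cells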;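 further: first round at 10 µM; read as green reporter fluorescence; hits show the peak of a series up to 25 µM; 1 = signal of infected wells without compound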
Insulin prom inh cell count: recorded beside Insulin prom inh, whose call it bears; normalized cell count, %; measured here: cell count, toxicity; reference of the scale not given here;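 cells exposed to compound for 48 h; stained nuclei by imaging scaled within each plate; lower means fewer cells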
HSV augment primary fold: recorded beside HSV augment, whose call it bears; fold increase; compound at 10 µM; measured here: primary screen fold increase 10 uM; tested in PC3 cells;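 GFP signal in the first replicate; 1 = infected wells without compound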
* hit, by the source's call; i = inactive; ? = inconclusive; · = no result given.

SMILES | Insulin prom inh | Insulin prom inh cell count | RGS16-Gao HTS | PKD1 inh | GALR2 agonist | HSV augment | HSV augment primary fold
Cc1cc(C)nc(SCC(=O)N/N=C\C(Br)=C\c2ccccc2)n1 | · | · | 104.0 | -3.5 | 0.6 | i | 1.03
O=C(COc1ccc(Br)cc1)NCCO | -20.0 | 94.8 | 100.3 | -0.9 | -0.1 | i | 0.9
O=C(O)/C=C/c1cccnc1 | · | · | 106.2 | · | · | i | 1.1
Cc1c(N(C(=O)Nc2ccccc2)C2=NCC(C)S2)c(=O)n(-c2ccccc2)n1C (stereo not drawn) | 36.4 | 82.5 | 103.5 | -16.6 | -0.3 | i | 1.04
CCC1=NN2C(=N)/C(=C\c3ccc(SCc4ccco4)o3)C(=O)N=C2S1 | 46.1 | 118.2 | 105.7 | -8.2 | -2.4 | ? | ·
C#Cc1ccc([C@@H]2C=C(C(=O)O)O[C@H](OCCCCO)C2)cc1 | · | · | 103.0 | 6.2 | · | i | 1.04
Cc1ccc(CNC(=O)c2ccccc2N)cc1 | 13.9 | 136.6 | 105.4 | -0.6 | -3.5 | i | 1.05
CC(C)(C)C(=O)NCCc1nc2ccccc2n1CC(=O)c1ccccc1 | 0.0 | 109.0 | · | -8.4 | -0.7 | i | 0.92
Cc1cccc(C(=O)NCC(=O)OCC(=O)c2cc(C)n(CC3CCCO3)c2C)c1 (stereo not drawn) | · | · | 99.0 | -7.9 | · | i | 0.99
COC(=O)c1ccc(C2CC(=O)Nc3cc(OC)c(OC)cc32)cc1 (stereo not drawn) | -264.7 | 46.0 | 106.0 | -10.0 | -2.0 | i | 0.81
N/C(=N/O)c1ccccc1N1CCC(Cc2ccccc2)CC1 | · | · | 110.6 | -6.3 | · | i | 1.04
COc1ccc2c(c1)C=C(CN1CCN(C(C)C)C(CCO)C1)CO2 (stereo not drawn) | · | · | 97.1 | -4.7 | · | i | 1.03
Cn1c(=O)n(CCc2ccccc2)c(=O)c2c1nc1n2CCN1Cc1ccco1 | · | · | 99.5 | -1.8 | -3.1 | i | 0.94
CC(C)CN1CCN(Cc2ccc(Oc3ncccn3)cc2)CC1CCO (stereo not drawn) | · | · | 100.3 | · | · | i | 1.08
COc1ccccc1C(=O)Nc1cccc(SC)c1 | -155.8 | 112.7 | 104.3 | 7.5 | -1.4 | i | 1.1
C=CCNC(=S)N1CCC(C(=O)c2ccc(OC)cc2)CC1 | -3.2 | 58.8 | 105.1 | 8.7 | -1.5 | i | 1.21
CC(Cl)C(=O)Nc1ccccc1C#N (stereo not drawn) | 3.3 | 90.7 | 94.3 | -11.2 | -0.6 | i | 0.91
Cc1cc(-c2sccc2Br)nc(-n2cccc2)n1 | · | · | 97.8 | -7.7 | · | i | 0.99
O=C(c1ccco1)[C@@H]1[C@@H]2C(=O)N(c3ccc(Br)cc3)C(=O)[C@@H]2C2c3ccccc3C=CN21 (stereo partly drawn) | -41.2 | 48.7 | · | -7.6 | -1.9 | ? | ·
COc1ccccc1C1C(C(=O)c2cc3ccccc3o2)=C(O)C(=O)N1CCN(C)C (stereo not drawn) | · | · | 99.9 | -6.5 | -2.4 | i | 1.01
COc1ccccc1NC(=S)NC(=O)CCCOc1ccc(Cl)cc1Cl | -12.7 | 174.7 | 96.3 | 2.3 | -0.2 | i | 0.96
O=S1(=O)CCC(NC(=S)Nc2ccccc2)C1 (stereo not drawn) | · | · | 98.2 | · | · | i | 0.99
Cc1cccc(C)c1NC(=O)C1(C)c2cccc[n+]2CC(=O)N1Cc1cccs1 (stereo not drawn) | · | · | 100.2 | 1.9 | · | i | 0.95
CCCn1nnnc1SCC(=O)NCc1cccs1 | · | · | 106.2 | 7.2 | -0.6 | i | 1.05
CCOc1ccc(-c2ncncc2-c2ccc(OC)cc2)c(O)c1 | 8.3 | 147.8 | 99.7 | -2.3 | -0.5 | i | 0.87
CC(=O)N(c1ccc2oc(=O)sc2c1)S(=O)(=O)c1ccccc1 | 30.0 | 114.9 | 88.0 | 0.6 | -2.2 | i | 0.92
Cc1ccc(CCNC(=O)C2CC(c3ccccc3[N+](=O)[O-])=NO2)cc1 (stereo not drawn) | -9.7 | 128.6 | 100.0 | 2.4 | -1.7 | i | 0.95
Cn1cc(CNCc2ccc(-n3cccn3)cc2)c(-c2ccccc2F)n1 | · | · | 104.4 | -1.7 | · | i | 0.98
COc1ccc(C(=O)O)cc1S(=O)(=O)N(C)CCc1ccccn1 | · | · | 104.8 | · | · | i | 0.87
O=C(Cn1cnc2ccccc21)N/N=C/c1cccc([N+](=O)[O-])c1 | 41.2 | 117.1 | 100.1 | 4.9 | · | i | 0.96
COC(=O)c1cc(OC)c(OC)c(OC)c1N | 14.8 | 82.6 | 112.6 | -9.4 | -1.4 | · | ·
O=C(Nc1ccccc1)Oc1ccccc1N1CCOCC1 | · | · | 120.8 | · | · | i | 0.95
COCC(C)NC(=O)c1noc2c1CCc1cc(OC)ccc1-2 (stereo not drawn) | -15.4 | 90.5 | 102.9 | -2.8 | -1.8 | i | 0.85
Cc1nnc(SCc2cccc3ccccc23)s1 | · | · | 100.5 | · | · | i | 1.13
COc1ccc(CNC(=O)c2sc3nc4c(c(C(F)(F)F)c3c2N)CCC4)cc1 | -47.7 | 180.3 | 97.8 | -7.8 | -0.3 | i | 1.07
Cc1cc(C)c2c(N)c(C(=O)N3CCCCCC3)sc2n1 | 3.3 | 99.0 | 94.6 | -3.0 | -4.0 | i | 1.08
Cn1c(SCC(=O)N2CCCC2)nnc1-c1cnccn1 | -73.3 | 120.2 | 109.5 | 3.0 | · | i | 1.08
COc1ccc(N/C=C/C(=O)c2ccc(C)cc2)c([N+](=O)[O-])c1 | -9.3 | 104.6 | · | -8.6 | -0.4 | i | 0.92
COc1cc(OC)cc(C(=O)NCC(=O)OCc2cc(=O)oc3cc(OC)ccc23)c1 | · | · | 100.2 | · | · | i | 0.84
COc1ccc(C(CNC(=O)c2ccc(-n3cnnn3)cc2)N2CCOCC2)cc1 (stereo not drawn) | 28.6 | 101.6 | 103.8 | 5.0 | -0.8 | i | 0.86
Cc1cc2cc(CNC(=O)c3ccc(S(=O)(=O)N4CCOCC4)cc3)ccc2n1C | · | · | 102.3 | -0.2 | -3.1 | i | 1.11
Cc1ccc(C)c(N2CCN(C(=O)Cc3cn(C)c4ccccc34)CC2)c1 | -18.6 | 91.7 | 100.5 | 6.4 | -2.0 | i | 1.04
N#CCc1nc2ccc(S(=O)(=O)N3CCOCC3)cc2s1 | · | · | 100.4 | · | · | ? | ·
Cc1cccc(Nc2c(F)c(F)c(F)c(F)c2C(=O)O)c1 | · | · | 103.0 | -6.3 | · | i | 1.05
COC(=O)C1=C(C)N(c2cccc(OC)c2)C(=O)/C1=C\c1ccco1 | -28.6 | 119.7 | 108.5 | 0.3 | -0.3 | i | 0.97
Cc1cc(/C=C(/C#N)c2nc3ccccc3[nH]2)c(C)n1-c1cccc([N+](=O)[O-])c1 | -20.8 | 96.2 | 108.2 | -2.1 | 0.2 | i | 0.81
NC(=O)CSc1nnc(-c2ccc([N+](=O)[O-])cc2)o1 | · | · | 106.5 | 6.1 | · | i | 0.98
CCOCC(=O)Nc1nc2ccc(C)cc2s1 | -62.5 | 102.2 | 100.2 | -6.0 | -0.6 | i | 0.98
CC(C)c1cc(C(=O)N/N=C/C=C/c2ccccc2)n[nH]1 | 52.9 | 67.8 | 174.8 | -3.4 | -1.9 | i | 0.96
C=CCn1c(NC(=O)c2ccccc2Cl)c(C#N)c2nc3ccccc3nc21 | · | · | 105.9 | -5.6 | 6.2 | ? | ·
Cn1nnnc1SCC(=O)Nc1nc(-c2ccccc2)c(-c2ccccc2)o1 | 50.0 | 117.2 | 106.5 | -7.9 | -1.3 | i | 0.84
CCOC(=O)c1c(C)n(-c2ccccc2)c2ccc(O)c(CN(C)C)c12 | · | · | 115.2 | -2.6 | · | i | 0.9
COc1ccc(-c2oc3cc(OC)c(O)c(OC)c3c(=O)c2OC)cc1O | · | · | 102.6 | -2.9 | · | i | 0.59
N#CC(C#N)=C1C=C2C=C(N3CCCCC3)CCC2CC1 (stereo not drawn) | -212.5 | 90.0 | 172.9 | -40.9 | -1.7 | ? | ·
CCC(C(=O)OCC(=O)Nc1cccc(S(=O)(=O)NC2=NCCCCC2)c1)c1ccccc1 (stereo not drawn) | · | · | 114.1 | -3.3 | · | i | 0.94
O=c1c2cnn(-c3ccccc3)c2ncn1Cc1ccco1 | -72.4 | 148.0 | 105.2 | 4.8 | -0.3 | i | 0.78
CCCOc1ccc(N2CC(C(=O)NC3=NCCS3)CC2=O)cc1 (stereo not drawn) | -15.4 | 113.0 | 100.7 | -6.6 | · | · | ·
CCn1nc(C)cc1C(=O)Sc1ccc(Cl)cc1Cl | · | · | 101.0 | · | · | i | 0.9
CCC(=O)Nc1ccc(S(=O)(=O)Nc2ncccn2)cc1 | 5.5 | 90.7 | 99.2 | 2.8 | -2.9 | i | 0.96
C/C(CC(=O)NC1CCCC1)=N\NC(=O)C1CCCCC1 | · | · | 105.3 | -8.3 | · | i | 0.97
Other results
SMILES | Insulin prom inh | Insulin prom inh cell count | RGS16-Gao HTS | PKD1 inh | GALR2 agonist | HSV augment | HSV augment primary fold
CCCCCCCn1c2c(c(=N)c3ccccc31)CCC2 | · | · | 102.4 | -3.6 | · | i | 0.73
CCN(CC)S(=O)(=O)N1CCC(C(=O)NC2CCCc3ccccc32)CC1 (stereo not drawn) | 22.7 | 125.0 | 104.1 | 9.9 | -0.2 | i | 1.09
CC(=O)n1nc(-c2cccnc2)nc1N | · | · | 97.6 | -1.0 | -4.0 | i | 0.81
COc1ccc(-n2c(=O)cc(N3CCN(c4ccccc4F)CC3)[nH]c2=O)cc1 | -15.4 | 131.4 | 94.3 | -17.4 | -0.8 | i | 1.1
CCn1c(=O)c([N+](=O)[O-])c(NCc2ccc3c(c2)OCO3)c2ccccc21 | · | · | 113.1 | · | · | i | 0.94
Cc1cc(C)c2cc(C(=O)N(C)C3CCN(C)CC3)[nH]c2c1 | · | · | 106.0 | · | · | i | 0.99
CCC(CC)C(=O)Nc1cccc(/C(C)=N/NC(=O)c2ccccc2Cl)c1 | -9.9 | 61.0 | 49.5 | -0.7 | -3.9 | i | 0.84
CCn1c(SCC(=O)N2CCCCC2C)nc2ccsc2c1=O (stereo not drawn) | 2.6 | 144.9 | 93.6 | -1.9 | 0.0 | i | 1.03
CNC(=O)C(=O)NCCN1CCN(C(=O)c2ccc([N+](=O)[O-])cc2)CC1 | · | · | 99.2 | -4.1 | · | i | 0.99
COc1ccc(Nc2nc(N)nc(CSc3n[nH]c(-c4ccccc4)n3)n2)cc1 | -13.3 | 143.5 | 99.9 | -8.4 | -2.2 | i | 0.923
CCOc1ccc(CNc2nc3ccccc3n2CCN2CCOCC2)cc1 | -31.2 | 112.6 | 85.5 | -2.1 | -2.1 | i | 0.89
O=C(Nc1ccc(NC(=O)c2ccco2)nc1)c1ccccn1 | 25.0 | 90.5 | 100.0 | -8.7 | -0.9 | i | 0.99
COc1ccc(Nc2nc(Cl)nc(N3CCN(c4ccc(OC)cc4)CC3)n2)cc1 | 26.7 | 115.5 | 90.9 | 4.7 | · | i | 0.97
CCN(C(=O)CSc1nnc(-c2cccs2)n1CC)C1CCS(=O)(=O)C1 (stereo not drawn) | · | · | 89.3 | · | · | i | 0.96
Cc1ccc(-n2c(Cc3cccc4ccccc34)n[nH]c2=S)c(C)c1 | 0.0 | 64.3 | 89.1 | -5.1 | · | i | 1.01

Profiles as entered above.
CCCCCCCn1c2c(c(=N)c3ccccc31)CCC2 in the list: Insulin prom inh = ·; Insulin prom inh cell count = ·; RGS16-Gao HTS = 102.4; PKD1 inh = -3.6; GALR2 agonist = ·; HSV augment = i; HSV augment primary fold = 0.73
CCOc1ccc(CNc2nc3ccccc3n2CCN2CCOCC2)cc1 in the list: Insulin prom inh = -31.2; Insulin prom inh cell count = 112.6; RGS16-Gao HTS = 85.5; PKD1 inh = -2.1; GALR2 agonist = -2.1; HSV augment = i; HSV augment primary fold = 0.89

4 records drawn at random from those above, as already listed:
SMILES | Insulin prom inh | Insulin prom inh cell count | RGS16-Gao HTS | PKD1 inh | GALR2 agonist | HSV augment | HSV augment primary fold
Cc1cccc(C)c1NC(=O)C1(C)c2cccc[n+]2CC(=O)N1Cc1cccs1 (stereo not drawn) | · | · | 100.2 | 1.9 | · | i | 0.95
COc1ccc(C(=O)O)cc1S(=O)(=O)N(C)CCc1ccccn1 | · | · | 104.8 | · | · | i | 0.87
COc1ccc(-c2oc3cc(OC)c(O)c(OC)c3c(=O)c2OC)cc1O | · | · | 102.6 | -2.9 | · | i | 0.59
COc1ccccc1C(=O)Nc1cccc(SC)c1 | -155.8 | 112.7 | 104.3 | 7.5 | -1.4 | i | 1.1
